# Menin MLL FP FL = displaces fluorescein MLL peptide from human menin. AID 1766. Fluorescence polarization, fluorescein-MLL peptide displacement from menin. FP activity change, % at 61.4 µM. 290,000 tested, under 10 active; inconclusive = falling polarisation curve, or a change in total fluorescence; inactive = total fluorescence flat and polarisation flat or rising; no compound was filed as active; the % refers to the polarisation; negative = inhibition;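 further: % of control where 0% means no effect; inhibitors lower the polarisation; unlabelled MLL peptide was the positive control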
# TRPML1 blocker = blocks the human TRPML1 channel; AID 624415; TRPML1-inducible cells, Ca2+ dye fluorescence, FDSS; active compounds read low; inhibition of EC80 agonist-evoked calcium signal; hit rate 0.02% among 390,000; activity change, negative = inhibition, % (test concentration not listed); Q9GZU1; in the data active means activity change below about -50%; inconclusive means about -30% to -50%; inactive means above about -30%;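 further: stimulus is agonist 54-4 at its EC80 concentration; on the % scale 0 is the no-effect control and ±100 the full control effect; compound concentration not given in the record; the text of the record puts the active cut at -80%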
# Target sequence (Q9GZU1 whole entry, looked up): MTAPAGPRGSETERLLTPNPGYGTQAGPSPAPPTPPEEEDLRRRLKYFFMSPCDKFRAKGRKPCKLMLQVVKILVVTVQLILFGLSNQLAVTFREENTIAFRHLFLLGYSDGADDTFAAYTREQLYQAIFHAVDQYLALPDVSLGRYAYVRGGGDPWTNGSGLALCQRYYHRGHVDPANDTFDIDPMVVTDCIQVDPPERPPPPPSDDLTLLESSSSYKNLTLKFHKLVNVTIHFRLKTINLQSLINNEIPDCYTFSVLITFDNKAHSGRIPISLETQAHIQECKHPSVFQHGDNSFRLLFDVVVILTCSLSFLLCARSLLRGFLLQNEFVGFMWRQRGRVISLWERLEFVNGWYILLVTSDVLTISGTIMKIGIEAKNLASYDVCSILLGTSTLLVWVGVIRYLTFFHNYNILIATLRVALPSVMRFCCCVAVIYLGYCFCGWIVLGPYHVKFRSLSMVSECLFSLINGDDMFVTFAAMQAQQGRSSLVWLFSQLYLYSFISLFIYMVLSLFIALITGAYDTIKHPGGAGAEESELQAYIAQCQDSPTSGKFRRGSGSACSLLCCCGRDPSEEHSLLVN
#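 TRPML1-DL cells, Tet-induced overnight (~16 h, 37 °C) at 1,500 cells/well, were loaded with Ca8 no-wash dye plus quencher for 45-90 min at room temperature. Compounds were pinned during FDSS kinetic reading; agonist 54-4 at EC80 (4 uM final) then added.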
# TRPML1 agonist = activates the human TRPML1 channel. TRPML1-expressing cells, Ca2+ dye fluorescence, FDSS; host cell line not named in the record; reference of the full effect not given here. activation, % (test concentration not listed). hit rate 0.12% among 410,000; in the data active = activation above about 50%; inconclusive = about 30% to 50%; inactive = below about 30%; further: 0% is about no effect; the text of the record puts the active cut at 80%
#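 In this qHTS format, compounds were pin-transferred onto Ca8-dye-loaded TRPML1-DL cells induced with Tet overnight, and intracellular Ca2+ fluorescence was recorded kinetically for 110 s after a 10 s baseline. A subsequent 4uM final 54-4 (EC80) addition followed by a second 110 s read served as the antagonist phase.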
# gsp ag = agonists of gsp mutant (McCune-Albright syndrome) | gsp mutant cells, cAMP HTRF, 30 min; control for the full effect not named in the record | Potency, µM (series often up to 76.9 µM), for the others: at the highest dose activation (cAMP increase), actives largely listed as activators | hit rate 0.13% among 340,000; active = well fitted activation curve with a large enough effect; inconclusive = small, poorly fitted or top-dose-only effect, or another doubt; inactive = no such curve, though single readings can be large or run the other way; cell line not stated here;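 further: phosphodiesterase inhibitor Ro 20-1724 added with compounds to block cAMP breakdown; potency means the concentration at half of the fitted maximal effect; nearly all actives have a fitted effect of over 60% in size; about a fifth of the inactives were tested at one dose only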
#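 Cells stably selected in G418 were plated at 2000/well, grown 16-24 hr, then given compounds in DMSO with the PDE inhibitor […] (300 uM solution added) for 30 min at 37C; cAMP was read by HTRF.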
# ClpP mod = qHTS Assay for Activators of ClpP; Potency, µM (doses to about 57.5 µM), for the others: at the top dose activity change, negative = active; ATP-dependent Clp protease proteolytic subunit (Bacillus subtilis (strain 168)), P80244; purified B. subtilis ClpP, FRET peptide cleavage, 20 min; hit rate 1.9% among 340,000; active = well fitted falling curve with a large enough effect; inconclusive = small, poorly fitted or top-dose-only effect; inactive = no such curve, though single readings can be large or run the other way; further: potency means the concentration at half of the fitted maximal effect; the source files actives as falling curves though it sought activators and does not explain the sign; nearly all actives have a fitted effect of over 65% in size; many hits overshoot -100%
# Target sequence (P80244 whole entry, looked up): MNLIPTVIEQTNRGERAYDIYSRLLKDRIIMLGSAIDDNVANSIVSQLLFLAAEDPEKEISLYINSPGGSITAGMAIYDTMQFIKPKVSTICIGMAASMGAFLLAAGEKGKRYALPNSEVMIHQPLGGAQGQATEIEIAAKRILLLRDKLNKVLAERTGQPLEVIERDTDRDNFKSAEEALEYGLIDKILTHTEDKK
#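 Buffer: 100 mM Tris/HCl pH8, 100 mM KCl, 0.05% low protease BSA, 2.5% glycerol, 0.01% Tween-20. ClpP 10 microg/mL final; 20 min RT; delta FRET normalized to ADEP and DMSO controls.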
# gsp antag = antagonists of gsp mutant (McCune-Albright syndrome); gsp-mutant cells, cAMP HTRF, 30 min; control for the full effect not named in the record; Potency, µM (doses to about 76.9 µM), without a hit: at the top dose activity change, negative = inhibition, hits mostly inhibitors; hit rate 0.4% among 340,000; active = falling curve of any shape with a large fitted effect; inconclusive = falling curve, mostly with a smaller effect; inactive = flat or rising curve; cell line not stated here;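 further: intracellular cAMP measured with PDE inhibitor Ro 20-1724 present during compound exposure; potency means the concentration at half of the fitted maximal effect; on the % scale 0 is the no-effect control and ±100 the full control effect; nearly all actives have a fitted effect of over 65% in size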
#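 Cells, 2000/well, grown 16–24 h in DMEM 10% FBS with 0.5 mg/ml G418, then compounds plus […] (300 uM addition stock), 30 min at 37C. cAMP read by HTRF (cAMP-d2 and anti-cAMP antibody-K in lysis buffer) after 30 min RT.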
# The depositor's hits bear a star; u = inconclusive; x = no result given; & = joins results of further samples; [ ] = dose if it differs, or a comment. Not all compounds are listed; the hit share may differ from the screen's.
1. O=C(c1ccccc1)c1cn(CC(=O)N2CCCC2)c2ccccc12
2. CC1=C[C@@H]2c3cccc4[nH]cc(c34)C[C@H]2N(C)C1
3. Cc1cc(Cl)ccc1C(=O)C1CCCN(C2CCSCC2)C1 (configuration not stated)
4. CC12CNCC(C)(CNC1)C2O (configuration not stated)
5. CCCN(CCC)CCc1c[nH]c2ccc(C(N)=O)cc12
6. O=[N+]([O-])c1ccc(N2CCCC2)c(F)c1Br
7. COC(=O)C1=C(c2ccc(F)cc2OCc2ccccc2)C[C@@H]2CC[C@H]1N2C(=O)NCc1cccc(C(F)(F)F)c1
8. CCN(CC)CCN1Cc2ccccc2C1=N

assay / entry,1,2,3,4,5,6,7,8
Menin MLL FP FL,-0.6,u,0.9,3.6,-0.4,3.1,x,2.4
TRPML1 blocker,-10,9,-9,12,x,13,-6,9
TRPML1 agonist,-0.2,1.5,-0.5,-0.3,-0.1,-0.6,1.1,0.3
gsp ag,u,-18%[15.4 µM],-9%,-16%,x,4%,x,23%[15.4 µM]
ClpP mod,-0.1%,x,x,0.7%,4.3%[115 µM],x,-1.9%,-2.0%
gsp antag,-10%,-16%,7%,-3%,x,u,-1%,3%

9. CCOP(=S)(OCC)C(O)CCCCCn1c(=O)c(F)cn(C2CCCO2)c1=O (configuration not stated)
10. CC12CC(O)C3C(CCC4=CC(=O)CCC43C)C1CCC2=O (configuration not stated)
11. Cc1ccc(C)c(OCc2cc(C(=O)N3C[C@H]4C[C@@H](C3)c3cccc(=O)n3C4)no2)c1
12. CCCCNC(=O)c1c(N)n(CCCOC)c2nc3ccccc3nc12
13. CC1=Nc2ccccc2/C1=C/c1c(O)[nH]c(=O)[nH]c1=O
14. O=c1c2cc(Cl)cc(Cl)c2nc(CN2CCOCC2)n1-c1ccccc1F
15. O=C(CCc1nnc2ccc(NCc3ccc(F)cc3)nn12)N1CCC2(CC1)OCCO2
16. O=C(Nc1ccc(-c2nc3ccccc3c(=O)o2)cc1)c1ccco1

assay / entry,9,10,11,12,13,14,15,16
Menin MLL FP FL,1.6,x,1.9,5.2,-4.1,-1.9,-0.3,-0.6
TRPML1 blocker,-6,0,9,4,-5,-12,-16,-5
TRPML1 agonist,-0.5,0.3,1.2,0.4,4.4,0.7,-0.2,0.5
gsp ag,3%[15.4 µM],7%,-1%[15.4 µM],-6%,-29%,-48%[inhibitor],u,-1%[15.4 µM]
ClpP mod,-11%,x,-7.0%,25µM*,1.3%,-0.8%,-9.4%,u
gsp antag,9%,2%,1%,2%,-9%,-23%,11%,-1%

17. N[C@H](CO)Cc1ccccc1
18. COC(=O)C1=C(c2ccc(-c3ccccc3)c(F)c2)C[C@@H]2CC[C@H]1N2C(=O)NCc1cc(C)oc1C(F)(F)F
19. COc1ccc(CNC(=O)c2cc3c(-c4ccccc4F)nn(C)c3s2)c(OC)c1
20. COc1cccc(CN2CCN(C(=O)Cc3ccccc3OC)CC2)c1
21. O=C1NC(=S)NC(=O)C12C(c1ccccc1)NC(=S)NC2c1ccccc1 (configuration not stated)
22. COC(=O)C1=C(c2ccc(OCc3ccccc3)cc2)C[C@@H]2CC[C@H]1N2C(=O)NCc1ccccc1
23. Fc1cccc(CN2CCN(c3ccc(Cl)cc3)CC2)c1
24. COc1ccc2c(C)c(CC(=O)N3C[C@H]4C[C@@H](C3)c3cccc(=O)n3C4)c(=O)oc2c1C

assay / entry,17,18,19,20,21,22,23,24
Menin MLL FP FL,x,x,x,3.2,6.3,x,0.5,4.6
TRPML1 blocker,-2,3,-4,5,-3,-4,1,x
TRPML1 agonist,-0.1,0.4,0.6,-0.6,-0.5,2.4,-0.5,x
gsp ag,x,x,x,-46%[inhibitor],9%,-26%,-16%,x
ClpP mod,0.8%,-8.5%,u,-3.7%,x,-2.2%,1.8%,4.8%
gsp antag,3%,-8%,x,-3%,5%,-11%,3%,-18%

# A different layout for 4 compounds above.
22: COC(=O)C1=C(c2ccc(OCc3ccccc3)cc2)C[C@@H]2CC[C@H]1N2C(=O)NCc1ccccc1
  Menin MLL FP FL: x	TRPML1 blocker: -4	TRPML1 agonist: 2.4	gsp ag: -26%	ClpP mod: -2.2%	gsp antag: -11%

24: COc1ccc2c(C)c(CC(=O)N3C[C@H]4C[C@@H](C3)c3cccc(=O)n3C4)c(=O)oc2c1C
  Menin MLL FP FL: 4.6	TRPML1 blocker: x	TRPML1 agonist: x	gsp ag: x	ClpP mod: 4.8%	gsp antag: -18%

23: Fc1cccc(CN2CCN(c3ccc(Cl)cc3)CC2)c1
  Menin MLL FP FL: 0.5	TRPML1 blocker: 1	TRPML1 agonist: -0.5	gsp ag: -16%	ClpP mod: 1.8%	gsp antag: 3%

21: O=C1NC(=S)NC(=O)C12C(c1ccccc1)NC(=S)NC2c1ccccc1 (configuration not stated)
  Menin MLL FP FL: 6.3	TRPML1 blocker: -3	TRPML1 agonist: -0.5	gsp ag: 9%	ClpP mod: x	gsp antag: 5%

# Remaining list, next part
25. Cc1cc(=O)oc2c(C)c(OCC(=O)N3CCN(Cc4ccccc4)CC3)ccc12
26. CC(C)Cc1[nH]c(=O)c(C#N)c2c1CCC2
27. N#CCCn1cc(C(=O)Nc2ccccc2Cl)c(-c2ccc(F)cc2)n1
28. C=CCN(c1ccc(C(=O)N(CC)CC)cc1)S(C)(=O)=O
29. O=c1[nH]c(=O)n(C2CCCCCC2)c(O)c1C=NC1CCN(Cc2ccccc2)CC1
30. CCCCOP(=O)(OCCCC)C(O)c1ccc(Br)cc1 (configuration not stated)
31. C#CCN(C[C@@H]1[C@@H](OC(=O)Nc2c(C)noc2C)[C@@H](OC(=O)Nc2c(C)noc2C)Cn2c(=O)n(CCCCCC)c(=O)n21)S(=O)(=O)c1ccc(C)cc1
32. CN1C(=O)C(=Cc2ccc(OCCN(C)c3ccccn3)cc2)C(=O)N(C)C1=O

assay / entry,25,26,27,28,29,30,31,32
Menin MLL FP FL,x,-6.5,-0.3,6.0,15,-0.5,x,2.0
TRPML1 blocker,-6,-7,37,-15,-2,1,9,-10
TRPML1 agonist,0.7,-0.6,1.7,-0.6,0.6,2.8,1.6,-0.2
gsp ag,3%,-43%[inhibitor],10%[15.4 µM],30%,15%,u,-34%[inhibitor],-8%
ClpP mod,x,21%,0.0%,-0.4%,-0.5%,1.3%,-0.5%,-2.4%
gsp antag,-8%,12%,-23%,2%,10%,6%,x,17%

33. CCOC(=O)CC(SP1(=S)OCC2(CCCCC2)CO1)C(=O)OCC (configuration not stated)
34. O=C(CNC(=O)OCc1ccccc1)Nc1ccc(Br)cc1C(=O)c1ccccc1Cl
35. Cc1nc2c(c(=O)[nH]1)C(c1ccccc1Cl)c1c(c3ccccc3oc1=O)O2 (configuration not stated)
36. Cn1c(O)c(C=NCCOc2ccc(Cl)cc2)c(=O)n(C)c1=O
37. O=c1c(C=Nc2cccnc2Cl)c(O)n(CCCCl)c(=O)n1C1CCCCC1
38. CCOP(=O)(Cc1cc(C#N)oc1C)OCC
39. CN(c1ccccc1)S(=O)(=O)c1ccc2ccccc2c1
40. CCOc1cc(-c2c(C#N)c(=O)[nH]c3c2c(C)nn3-c2ccc(F)cc2)ccc1O

assay / entry,33,34,35,36,37,38,39,40
Menin MLL FP FL,x,-1.3,-1.4,0.6,u,1.4,-2.7,3.3
TRPML1 blocker,10,16,-5,-10,-9,14,-11,1
TRPML1 agonist,0.9,2.1,5.8,0.2,2.6,-0.3,0.9,1.6
gsp ag,-19%,-2%,-41%[inhibitor],-6%,u,-2%,-43%[inhibitor],24%
ClpP mod,28µM*,2.9%,-0.5%,-6.0%,x,1.4%,x,-17%
gsp antag,-11%,-15%,-15%,16%,-11%,6%,-13%,u

41. O=C(COc1ccccc1)NCCc1cnc[nH]1
42. CN(C)C(=O)Oc1ccc2ccccc2c1Cl
43. Cc1ccsc1C(=O)C1CCCN(Cc2cn(C)nc2C)C1 (configuration not stated)
44. Cc1cc(=O)oc2c(C)c(OCC(=O)N3CCC(C(=O)O)(c4ccccc4)CC3)ccc12
45. CC(C#N)CCC#N (configuration not stated)
46. CCCCn1c(O)c(C=NCCCN(CC)CC)c(=O)[nH]c1=O
47. Cc1ccc(N2C(=O)NC(=O)/C(=C/c3cnc(-c4ccccc4)nc3)C2=O)cc1C
48. CC1(C)CN=C(Nc2ccc(F)c(F)c2)S1

assay / entry,41,42,43,44,45,46,47,48
Menin MLL FP FL,4.2,-0.8,-0.6,-3.4,x,2.0,u,0.1
TRPML1 blocker,-4,9,7,x,7,-6,37,-8
TRPML1 agonist,-1.3,0.6,-0.7,x,-0.8,-0.5,0.7,-0.1
gsp ag,23%[15.4 µM],24%,-10%[15.4 µM],x,x,2%,-3%[15.4 µM],u
ClpP mod,0.1%,0.0%,x,4.8%,1.9%,0.5%,0.5%,-0.7%
gsp antag,-7%,-7%,-12%,1%,-2%,9%,2%,8%

# Ordered by length of the SMILES (low to high): part of the list above.
41. O=C(COc1ccccc1)NCCc1cnc[nH]1
47. Cc1ccc(N2C(=O)NC(=O)/C(=C/c3cnc(-c4ccccc4)nc3)C2=O)cc1C
44. Cc1cc(=O)oc2c(C)c(OCC(=O)N3CCC(C(=O)O)(c4ccccc4)CC3)ccc12

assay / entry,41,47,44
Menin MLL FP FL,4.2,u,-3.4
TRPML1 blocker,-4,37,x
TRPML1 agonist,-1.3,0.7,x
gsp ag,23%[15.4 µM],-3%[15.4 µM],x
ClpP mod,0.1%,0.5%,4.8%
gsp antag,-7%,2%,1%

# Other structures
49. O=C1C2CCCN2C(c2ccc(Cl)c(Cl)c2)N1c1ccccn1 (configuration not stated)
50. Cc1cc(OCCCC(=O)NCc2cccs2)ccc1Cl
51. Cc1ccccc1NC1(C#N)CCCCC1
52. CCN(CC)C(=O)c1ccc(NC(=O)c2ccc3c(c2)NC(=O)CS3)cc1
53. OC1(CN2CCOCC2)C2CC3CC(C2)CC1C3 (configuration not stated)
54. COc1ccc(OCC#CCN2CCNCC2)cc1
55. Nc1ccc([As](=O)(O)O)cc1
56. O=C(c1cccnc1)C1CCCN(Cc2nc(-c3cnccn3)no2)C1 (configuration not stated)

assay / entry,49,50,51,52,53,54,55,56
Menin MLL FP FL,-0.2,0.9,-1.2,x,1.0,-0.6,4.5&-1.9&-1.7,-1.3
TRPML1 blocker,38,-13,-16,32,1,-11,11,-6
TRPML1 agonist,0.6,0.3,0.4,1.1,0.2,0.1,-0.7,-0.6
gsp ag,-1%,-6%[15.4 µM],-72%[inhibitor],-1%,-5%,u,x,6%
ClpP mod,-7.2%,x,2.5%,-2.5%,-1.0%,2.9%,0.7%,1.3%
gsp antag,-16%,-3%,6%,-7%,10%,13%,3%,7%
